TRPML1 ag: agonists of human TRPML1 channel | Q9GZU1 | TRPML1-expressing cells, Ca2+ dye fluorescence, FDSS; host cell line not named in the record; reference of the full effect not given here | activation, % (test concentration not listed) | 0.12% of 410,000 active | AID 624414; in the data active = activation above about 50%; inconclusive = about 30% to 50%; inactive = below about 30%; also: 0% is about no effect; the text of the record puts the active cut at 80%
Target sequence (Q9GZU1 whole entry, looked up): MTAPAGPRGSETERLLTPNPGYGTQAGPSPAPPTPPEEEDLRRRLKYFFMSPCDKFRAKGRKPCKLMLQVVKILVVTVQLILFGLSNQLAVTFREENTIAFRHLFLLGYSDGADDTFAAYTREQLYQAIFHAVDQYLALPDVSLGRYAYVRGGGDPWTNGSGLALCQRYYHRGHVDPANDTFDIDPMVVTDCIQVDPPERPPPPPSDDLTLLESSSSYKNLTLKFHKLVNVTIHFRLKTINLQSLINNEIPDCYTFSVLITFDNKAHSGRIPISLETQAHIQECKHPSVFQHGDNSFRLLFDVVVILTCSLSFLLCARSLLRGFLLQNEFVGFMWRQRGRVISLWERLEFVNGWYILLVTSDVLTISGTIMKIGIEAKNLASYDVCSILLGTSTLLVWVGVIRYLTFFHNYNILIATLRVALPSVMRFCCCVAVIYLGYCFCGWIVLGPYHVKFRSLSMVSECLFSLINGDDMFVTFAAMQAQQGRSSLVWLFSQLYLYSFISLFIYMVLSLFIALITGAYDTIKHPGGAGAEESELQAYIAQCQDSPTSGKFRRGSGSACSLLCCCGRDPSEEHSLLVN
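TRPML1-DL cells, Tet-induced overnight (~16 h, 37 degrees C), loaded 45-90 min at room temperature with Ca8 no-wash calcium dye plus quencher. FDSS fluorescence: 10 s baseline, compound pin-transfer, 110 s agonist read, then EC80 54-4 (4uM final) and 110 s antagonist read.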
D2 potentiator: potentiates the human D2 dopamine receptor allosterically; P14416; DiscoveRx D2 beta-arrestin cells, luminescence, 90 min; 100% = 57 uM dopamine signal; potentiation, % (test concentration not listed); 0.23% of 360,000 active; active = potentiation of 50% or more; inconclusive = 30% to 50%; inactive = 30% or less;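 also: compound concentration not given in the record; tested on top of an EC20 dose of dopamine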
Target sequence (P14416 whole entry, looked up): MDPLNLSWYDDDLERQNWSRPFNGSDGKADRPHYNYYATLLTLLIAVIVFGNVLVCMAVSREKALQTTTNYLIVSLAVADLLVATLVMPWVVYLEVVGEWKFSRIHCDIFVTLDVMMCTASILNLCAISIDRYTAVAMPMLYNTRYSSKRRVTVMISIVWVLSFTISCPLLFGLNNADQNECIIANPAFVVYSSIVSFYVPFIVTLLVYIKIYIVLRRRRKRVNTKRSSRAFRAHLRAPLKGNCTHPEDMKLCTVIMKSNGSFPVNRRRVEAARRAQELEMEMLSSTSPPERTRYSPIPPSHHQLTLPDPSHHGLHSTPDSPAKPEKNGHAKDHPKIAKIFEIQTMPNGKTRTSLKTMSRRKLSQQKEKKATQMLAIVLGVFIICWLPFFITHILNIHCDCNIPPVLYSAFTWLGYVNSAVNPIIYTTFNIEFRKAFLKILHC
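D2 cells co-treated with compound plus 50 nM dopamine (EC20) for 90 min at 37 deg C to detect potentiation. Beta-arrestin recruitment was read as enzyme-fragment luminescence after 1 h at ambient temperature. Full response was set by 57 uM dopamine.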
CtBP-E1A blk: CtBP/E1A binding inhibition; AlphaScreen GST-E1A/His-CtBP binding, 1536-well; stronger effect = lower value; control for the full effect not named in the record; activity change, % (no concentration beside the values); 0.49% of 340,000 active; in the data active means activity change below about -65%; inconclusive means about -30% to -65%; inactive means above about -30%; also: % is scaled to controls: 0 for no effect and ±100 for the full control effect; compound concentration not given in the record
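AlphaScreen with 125 nM GST-E1A and 125 nM His-CtBP (5X stocks) in Tris pH 8.0, 300 mM NaCl, BSA, Tween 20, TCEP. Compounds preincubated 2 h at 37 deg C, then glutathione donor/nickel acceptor beads added for 1 h at 37 deg C in dark.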
TRPV1 PAM: enhances activation of the human vanilloid receptor TRPV1 | 0.02% of 320,000 active | AID 540277 | potentiation, % at 8.33 µM | TRPV1-expressing cells, Fluo-8 calcium influx, capsaicin EC20 potentiation; host cell line not named in the record; control for the full effect not named in the record; active means potentiation above 80%; inconclusive means 30% to 80%; inactive means below 30%; also: 0% is about no effect
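Cells expressing TRPV1 were dye-loaded with Fluo-8 and read kinetically: 10 s baseline, 3 min after compound (agonist portion), then 2 min after EC20 capsaicin (allosteric enhancer portion). Calcium-bound dye fluorescence at 480/520 nm.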
TRPML1 blocker: human mucolipin-1 channel inhibition; TRPML1-inducible cells, Ca2+ dye fluorescence, FDSS; stronger effect = lower value; inhibition of EC80 agonist-evoked calcium signal; activity change, negative = inhibition, % (concentration not given with the values); 0.02% of 390,000 active; in the data active means activity change below about -50%; inconclusive means about -30% to -50%; inactive means above about -30%;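 also: stimulus is agonist 54-4 at its EC80 concentration; % is scaled to controls: 0 for no effect and ±100 for the full control effect; compound concentration not given in the record; the text of the record puts the active cut at -80%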
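Calcium fluorescence in TRPML1-DL cells induced overnight with Tet: a 110 s read after compound pin addition, then a 110 s antagonist read after challenge with 54-4 at 4 uM final (EC80).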
Six1-Eya2 inh: Six1/Eya2 interaction inhibition; Q15475+O00167; AlphaScreen GST-Six1/His-Eya2 binding, biochemical; stronger effect = lower value; control for the full effect not named in the record; activity change, % (concentration not given with the values); 0.56% of 360,000 active; in the data active = activity change below about -65%; inconclusive = about -30% to -65%; inactive = above about -30%; also: % is scaled to controls: 0 for no effect and ±100 for the full control effect
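GST-Six1 + His-Eya2 (5X stock: 250/500 nM); Tris pH 8.0, 300 mM NaCl, 0.05% BSA, 0.02% Tween 20; GSH donor/Ni acceptor beads; 1 h 37 °C dark; AlphaScreen readout.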
An asterisk follows results filed as active; ? = inconclusive; · = no result given; & = joins results of further samples. Random draw from the library; any-hit rate near 0.95%.

#	SMILES	TRPML1 ag	D2 potentiator	CtBP-E1A blk	TRPV1 PAM	TRPML1 blocker	Six1-Eya2 inh
1	Cc1occc1C(=O)N1CCN(S(C)(=O)=O)CC1	0.3	12	3	-5	-5	2
2	CN1CCN(NC(=S)Nc2ccccc2)CC1	-0.2	1	4	-24	-11	-7
3	Cc1ccc(S(=O)(=O)N2CCC(C(=O)NNC(=O)c3ccccc3)CC2)cc1	0.8	-8	-2	1	4	4
4	CN(C)/C(=N\OC(=O)c1ccccc1)c1nonc1N	-0.7	25	-23	-5	-9	3
5	Cc1cccc(C(=O)Nc2scc(-c3ccc(Br)cc3)c2C(=O)O)c1	-0.6	-3	-21	·	-3	-17
6	O=C(NCc1ccccc1)c1c[nH]c2cc3c(cc2c1=O)OCCO3	2.0	12	-6	6	-4	-8
7	N#CCCN(/N=C/c1cccnc1)C1=NS(=O)(=O)c2ccccc21	-0.4	0	-24	5	40	-18
8	CC(NC(=O)CSc1nnc(-c2cc3cc(Cl)ccc3o2)n1C)c1ccccc1 (stereo not drawn)	0.7	-11	-5	-33	11	-8
9	CCn1c(=N)n(CC(=O)c2cccc(OC)c2)c2ccccc21	3.1	-11	-2	-1	-16	12
10	O=[N+]([O-])c1ccc(O)c(CSc2nnnn2-c2ccccc2)c1	0.2	-10	?	?	-4	0
11	Nc1nc(SCC(=O)NCCCO)nc2sc3c(c12)CCC3	0.1	-6	0	-6	36	-2
12	COc1ccc(C(=O)Nc2cc(C)nn2-c2nc3ccccc3[nH]2)c(OC)c1	2.1	-5	2	-8	45	-1
13	N#Cc1ccsc1NC(=O)C1CCCN1S(=O)(=O)c1cccs1 (stereo not drawn)	-0.8	0	-5	5	32	0
14	CCOc1ccc(C(=O)Nc2nncs2)cc1OCC	-0.8	-4	48	4	9	22
15	Cc1ccc(NC(=O)CSc2ccccc2NC(=O)c2ccccc2Cl)cc1Cl	2.7	-16	-6	7	-12	-1
16	CCC1(c2ccccc2)NC(=O)N(Cc2cccc([N+](=O)[O-])c2)C1=O (stereo not drawn)	0.5	-2	10	-6	-4	-9
17	CCOc1ccccc1C(=O)Nc1ccc(C(=O)c2ccccc2)cc1	2.2	-1	-9	6	63	4
18	O=C(CN1CCOCC1)Nc1cc([N+](=O)[O-])ccc1Cl	0.2	3	2	2	10	3
19	CC(C)(C)c1cc(N)n(-c2ccc(C(=O)O)cc2)n1	0.3	-7	0	1	8	4
20	COc1ccccc1C(=O)N(C)c1nnc(-c2ccccc2)s1	1.7	5	10	16	22	3
21	O=C(COc1cccc2cccnc12)N/N=C1\SCC(=O)N1CCc1ccccc1	0.6	4	7	6	-14	-1
22	CC(C)CN1C(=O)C(=Nc2cccnc2)c2ccccc21	1.1	-9	2	2	1	1
23	O=C(/C=C/c1ccccc1)CC(=O)c1ccccc1O	4.1	-17	·	-6	33	-5
24	COc1ccc(NC(=O)CCn2ccnc2)c(OC)c1	-0.7	-2	-22	7	-10	-11
25	N#Cc1c(Cn2cncn2)nc(=O)n(-c2ccccc2)c1N	0.0	6	-4	5	-24	7
26	CSc1nc2c(c(=O)[nH]1)C(c1cccc(Cl)c1)CC(=O)N2 (stereo not drawn)	-0.9	-2	7	18	8	4
27	Cc1nn(C)cc1CN(C)C(=O)c1ccc(OC2CCN(Cc3ccccn3)CC2)cc1	0.2	-12	-4	2	-7	-3
28	O=C(NC1CCCCC1)C(c1ccc2ncccc2c1)N(Cc1ccc(F)cc1)C(=O)c1ccc2c(c1)OCCO2 (stereo not drawn)	1.5	-6	-8	-7	8	-6
29	O=C(CSc1nnc2ccccn12)NNC(=O)c1ccc(Br)cc1	0.7	-3	-2	-30	5	-1
30	CCN(CC)CCNC(=O)c1sc2ncn(CC(=O)Nc3ccc(C)c(Cl)c3)c(=O)c2c1C	-0.5	-15	-2	-30	-21	-1
31	COc1cc(SC)ccc1C(=O)Nc1cccc(C2OCCCO2)c1	-0.6	-7	-1	28	2	1
32	N#CCCN(CCC#N)S(=O)(=O)c1ccc(C(=O)Nc2nc(-c3ccccc3)c(C(=O)c3ccccc3)s2)cc1	-0.4	-10	·	6	-7	-7
33	COc1ccc(-c2csc(=Nc3c(C)n(C)n(-c4ccccc4)c3=O)n2C(C)(C)C)cc1	0.4	-5	5	-1	-8	5
34	CCSC1=N/C(=C/c2ccsc2)C(=O)N1c1ccccc1	1.2	-20	29	1	30	29
35	CC1(C)CC(=O)C2=C(C1)N(Cc1ccco1)C(=O)C2(NC(=O)C1CCCCC1)C(F)(F)F (stereo not drawn)	-0.2	-2	-3	6	-9	0
36	COc1ccccc1NC(=O)C(Sc1ccccc1)c1ccccc1 (stereo not drawn)	2.3	-16	2	-1	-4	16
37	COc1ccc(C2c3[nH]c4ccccc4c3C[C@H]3C(=O)N(CCCO)CC(=O)N23)cc1OC (stereo partly drawn)	-1.1	-1	-2	6	28	0
38	CC[C@]12c3[nH]c4ccccc4c3CCN1C(=O)C(CC(=O)NCCCN(C)C)C[C@@H]2C(=O)N1CCN(C(=O)C2CC2)CC1 (stereo partly drawn)	0.0	·	-16	·	-4	2
39	Cc1ccccc1NC(=S)N1CCN(Cc2ccccc2)CC1	0.6	-10	-2	6	40	-7
40	CCc1ccc(C(=O)COC(=O)c2cc([N+](=O)[O-])ccc2N2CCOCC2)cc1	1.0	-69	-12	0	51	-19
41	CC(=O)NCCC(=O)Nc1sc2c(c1-c1nc3ccccc3[nH]1)CCCC2	1.0	-14	-12	-7	3	-19
42	Cc1ccccc1-c1noc(C(C)NC(=O)c2ccco2)n1 (stereo not drawn)	1.2&-1.0	-4	2	8	-8&0	-3
43	CCCC(C)(C)C(=O)N1CCC1(C)C(=O)NS(=O)(=O)c1ccc(Cl)cc1 (stereo not drawn)	-0.2	-6	5	·	·	3
44	O=C1NCC(O)=C1C=NC12CC3CC(CC(C3)C1)C2	0.6&1.0	-19&2	5&6	-29&4	-5&19	9&-1
45	CCN(CC)CCCNC(=O)C1CCN(C(=O)c2cc3sccc3n2Cc2ccc(F)cc2)CC1	0.3	-13	3	14	26	-2
46	O=C(Nc1ccccc1)C1=C[C@@H](c2csc3ccccc23)C[C@@H](OCc2ccc(CO)cc2)O1	-0.2	-5	-8	28	0	-4
47	S=c1sc2c(N3CCOCC3)ncnc2n1-c1ccccc1	-0.1	0	5	·	20	0
48	O=C(Nc1cccc(-c2cccc(Cl)c2)c1)C1CCN(Cc2nccs2)CC1	0.3	-29	3	·	-2	-6
49	Cc1ccc(S(=O)(=O)c2c(C)cc(C)nc2Oc2cccc(C(F)(F)F)c2)cc1	1.2	-18	24	-6	6	23
50	Cc1noc(C)c1S(=O)(=O)N1CCC(C(=O)N2CCN(C(=O)c3ccco3)CC2)CC1	-0.3	-2	8	11	-5	-2
51	CCC1(c2ccccc2)NC(=O)N(CC(=O)c2ccc3c(c2)OCO3)C1=O (stereo not drawn)	0.2	-66	3	6	-10	3
52	O=S(=O)(c1ccccc1)n1nc(-c2ccccc2)nc1NCc1ccco1	0.6	-33	-10	0	55	-14
53	C/C(=N\NC(=O)c1cccs1)c1cccnc1	1.3	-6	6	?	-8	9
54	O=S(=O)(Nc1ncccn1)c1ccc(NC(=S)N2CCN(c3cccc(C(F)(F)F)c3)CC2)cc1	0.6	-30	1	·	-6	-6
55	CC(C)C(=O)NCCc1nc2ccccc2n1C	-0.9	-10	4	11	7	3
56	Cc1cc(C(=O)N[C@H](c2ccccc2)[C@@]2(C)C[C@@H]2[C@@H](C)C(=O)Nc2ccc3ccccc3c2)n(C)n1	1.3	-10	-4	2	22	-11
57	Cc1ccc(C)c(NC(=O)CCC(=O)OC(C(=O)c2ccccc2)c2ccccc2)c1 (stereo not drawn)	0.6	-4	-7	-1	13	2
58	CCOC(=O)C1(CCCc2ccccc2)CCN(C(=O)CCc2cnccn2)CC1	1.2	-1	-3	-2	-2	13
59	Cc1sc(NC(=O)COc2ccccc2)c(C#N)c1C	-0.1	3	4	1	8	5
60	CCOc1ccc(S(=O)(=O)NCCC(=O)N(C)CC(=O)Nc2ccc(OC)cc2)cc1	0.0	2	0	5	-8	1

Further results.
#	SMILES	TRPML1 ag	D2 potentiator	CtBP-E1A blk	TRPV1 PAM	TRPML1 blocker	Six1-Eya2 inh
61	CCOC(=O)CSc1nnc(NC(=O)C2CC(=O)N(c3ccc(F)cc3)C2)s1 (stereo not drawn)	0.4	-3	-2	1	6	0
62	O=C(NCc1ccco1)c1cccc(S(=O)(=O)N2CCCC2)c1	0.3	-1	5	3	-1	5
63	COc1ccccc1NC(=O)Nc1ccc2c(c1)OCCO2	1.2	-31	4	0	-27	-12
64	COc1ccc(C)cc1S(=O)(=O)N(CC(=O)NC1CCCC1)c1ccc(F)cc1	-0.2	-7	-6	-30	6	24
65	Cc1ccccc1S(=O)(=O)NC(=O)C1(C)CCN1C(=O)Cc1cc(F)ccc1F (stereo not drawn)	-0.7	-2	2	·	·	8
66	CCCCOP(=O)(c1ccc(N(C)C)cc1)C(O)c1c(Cl)cccc1Cl (stereo not drawn)	-0.9	-7	3	6	21	0
67	COc1cccc(CNC2CCCC2)c1	-0.4	-11	7	-15	5	3
68	CCOC(=O)Oc1c(OC)cc(C(=O)O[C@@H]2C[C@@H]3CN4CCc5c([nH]c6cc(OC)ccc56)[C@H]4C[C@@H]3[C@H](C(=O)OC)[C@H]2OC)cc1OC	1.2	26	?	7	15	-11
69	COc1cc(C(=O)NCCNC(=O)c2cc(OC)c(C)c(OC)c2)cc(OC)c1C	-0.8	-8	-4	-5	10	6
70	COC(=O)CSc1nc2c(cnn2-c2ccc(Cl)cc2)c(=O)[nH]1	3.2	-4	4	-8	8	4
71	CCC(Sc1nc2ncccc2[nH]1)C(=O)NC1CCC(C)CC1 (stereo not drawn)	-0.2	-11	6	-18	-9	2
72	CS(=O)(=O)Nc1ccccc1Oc1ccccc1	-1.6	16	12	23	6	3
73	C=CCn1c(CNC(=O)c2ccco2)nnc1SCC(=O)c1ccc(F)cc1	1.7	-6	4	-10	-8	-4
74	CN(Cc1cccs1)C(=O)C1CCN(S(=O)(=O)c2ccccc2)CC1	0.2	0	1	0	-14	7
75	CC(C)Cn1c(=O)c2ccccc2n2c(CCC(=O)NCc3ccccn3)nnc12	0.2	-11	-6	-1	-6	0
76	Cc1cc(C)n(Cc2ccc(NC(=O)c3nn(C)cc3[N+](=O)[O-])cc2)n1	0.6	-8	4	11	6	-1
77	Nc1ccc(Oc2ccc(Cl)cc2)cc1	0.2	-5	-8	?	-11	-15

Profiles, quoted from the list. Order of values: TRPML1 ag | D2 potentiator | CtBP-E1A blk | TRPV1 PAM | TRPML1 blocker | Six1-Eya2 inh
Entry for N#Cc1c(Cn2cncn2)nc(=O)n(-c2ccccc2)c1N → 0.0 | 6 | -4 | 5 | -24 | 7
Entry for Cc1noc(C)c1S(=O)(=O)N1CCC(C(=O)N2CCN(C(=O)c3ccco3)CC2)CC1 → -0.3 | -2 | 8 | 11 | -5 | -2
Entry for O=C(NC1CCCCC1)C(c1ccc2ncccc2c1)N(Cc1ccc(F)cc1)C(=O)c1ccc2c(c1)OCCO2 (stereo not drawn) → 1.5 | -6 | -8 | -7 | 8 | -6

Screens from PubChem.
